Env fusion inh = blocks HIV Env-driven cell-cell fusion; HeLa-JRFL Env/CEM21 cell fusion, luciferase; actives 1.1% (n = 360,000); AID 651610; inhibition, % at 12.3 µM;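 active means mean replicate inhibition score of at least 50 and every replicate individually at or above 50; inconclusive means only one of the two criteria met; inactive means mean below 50 and not all replicates reaching 50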;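 further: 0% = plate neutral controls and 100% = maraviroc near 300 nM; one replicate is shown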
PABP polyA inh = PABP-poly(A) binding inhibition | actives 1% (n = 290,000) | PABP-poly(A) RNA binding, fluorescence polarization | P11940 | AID 2014 | inhibition, % at 35 µM;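 active means 50% or more with normal probe brightness, or confirmed in later tests; inconclusive means above 50% with abnormal brightness, or retests that disagree; inactive means below 50% or failed in later tests; about a fifth of its hits are not listed in these tables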;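 further: calls also rest on retests at 20 µM and on dose response follow-up; controls were probe without protein and protein plus probe with vehicle; some compounds called inactive have numbers as strong as hits; many hits fall short of the cut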
MT1-MMP act inh = MT1-MMP (human) activation inhibition. GFP/RFP ratio change, % at 20 µM. P50281. HT1080 RFP-PRO-GFP cells, GFP/RFP ratio fluorescence, overnight; percent of plate control window, DMSO zero. actives 0.061% (n = 360,000);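 active means GFP/RFP ratio change of at least 30% with cell ATP level not reduced by more than half and red fluorescence within 50% of control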; further: strong numbers were not always called active
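Assay system: HT1080 RFP-PRO-GFP cells. Benchmarks: DMSO vehicle wells and RFP-L50D-GFP reporter cell wells. Times: overnight cell settling, then overnight compound exposure, 37 °C, 5% CO2. Compound: 20 µM single dose, 1% DMSO. Read-out basis: GFP/RFP fluorescence ratio.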
Rce1 inhib = blocks yeast Ras-converting enzyme. calls only. yeast membranes, quenched prenylated peptide cleavage fluorescence. actives 0.27% (n = 290,000). Q03530;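 active means fall in fluorescence gain of 50% or more versus controls, with final raw signal at or below 3038400; inconclusive means same 50% fall but final raw signal above 3038400; inactive means fall in fluorescence gain under 50%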;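 further: plate controls were neutral control wells for no effect and wells lacking membranes for full effect; tested at 10 µM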
Target sequence (Q03530 whole entry, looked up): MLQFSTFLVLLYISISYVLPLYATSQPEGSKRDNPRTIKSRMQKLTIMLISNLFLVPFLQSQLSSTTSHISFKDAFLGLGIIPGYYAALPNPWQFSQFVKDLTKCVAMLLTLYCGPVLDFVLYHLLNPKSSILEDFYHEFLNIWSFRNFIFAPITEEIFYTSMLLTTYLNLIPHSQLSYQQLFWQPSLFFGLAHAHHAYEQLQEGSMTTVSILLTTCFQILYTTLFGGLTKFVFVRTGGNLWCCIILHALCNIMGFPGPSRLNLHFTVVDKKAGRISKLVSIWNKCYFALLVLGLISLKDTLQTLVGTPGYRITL
eIF4H inh = inhibitors of RNA binding by human eIF4H; Q15056; eIF4H fluorescence polarization binding assay; inhibition, % at 35 µM; actives 0.94% (n = 290,000); AID 2012;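 active means 50% or more with normal probe brightness, or confirmed in later tests; inconclusive means above 50% with abnormal brightness, or retests that disagree; inactive means below 50% or failed in later tests; about a fifth of its hits are not listed in these tables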;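 further: calls also rest on retests at 20 µM and on dose response follow-up; 0% = protein and probe with vehicle and 100% = probe without protein; strong numbers were not always called active; many hits fall short of the cut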
CSC inhib = blocks cancer stem cells; cancer stem cell-like cells viability, luminescence; inhibition, % at 7.5 µM; actives 1.1% (n = 300,000);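 active means mean at 75% or more and at least half the replicates too; inconclusive means mean and replicates disagree; tested in HMLE shEcad cells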;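 further: 0% = median of negative and 100% = median of positive control wells; the first replicate is given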
Yeast UUG start = modulators of start codon recognition fidelity in yeast; S. cerevisiae UUG-firefly luciferase reporter, luminescence/redox ratio; activity score, % at 18.7 µM; actives 0.13% (n = 350,000); AID 602363;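 active means replicate mean at a twofold rise or more, about +100% in these data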;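 further: firefly luciferase made from a UUG start codon reports start codon fidelity; reporter light over untreated wells divided by growth signal over untreated wells; some hits fall short of that in this replicate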
eIF4H inh retest = recorded beside eIF4H inh, whose call it bears; inhibition, %; compound at 20 µM; confirmation average;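 mean of two retest wells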
PABP polyA inh retest = further read-out of PABP polyA inh, marked with its call; inhibition, %; compound at 20 µM; confirmation repeats;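 mean of two retest wells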
MT1-MMP act inh RFP = recorded beside MT1-MMP act inh, whose call it bears; RFP signal change, %; measured here: RFP expression control read;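 0 = vehicle wells; hits needed this value within 50% of zero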
* hit, by the source's call; i = inactive; ? = inconclusive; nt = not tested or not shown; & = joins results of further samples. Some of the compounds tested. The share of hits here may be higher or lower than overall.

SMILES | Env fusion inh | PABP polyA inh | MT1-MMP act inh | MT1-MMP act inh RFP | Rce1 inhib | eIF4H inh | CSC inhib | Yeast UUG start | others
CC(=O)O[C@H]1C2OC(=O)C(C)=C2[C@@H]2OC(=O)[C@]3(CCC4OC41C)OC23 (some centres undefined) | nt | -8 | 2 | -5 | i | 6 | -9 | -4
COc1ccc(CCNC(=O)c2cc3c(=O)n4cccc(C)c4nc3s2)cc1OC | -1 | 3 | -3 | 2 | i | 0 | -4 | -13
Cc1nn(C(=O)CCC(=O)NCc2cccc(F)c2)c2ccccc12 | 11 | 8 | -6 | 3 | i | -4 | 0 | -8
NC(=O)CSc1nnc(Cc2cccs2)n1C1CCCCC1 | -34 | 2 | 8 | 1 | i | 7 | -2 | -14
O=C1c2ccccc2C2NC(=O)C3(CCCCC3)N12 (centres undefined) | -36 | 3 | 2 | 5 | i | -3 | 8 | -16
CSc1ccc(/C=N/N2CCN(Cc3ccccc3Cl)CC2)cc1 | 17 | 3 | 3 | -1 | i | 1 | 11 | nt
NC(=O)CSc1nnc2n(-c3ccccc3)c(=O)c3c4c(sc3n12)CCCCC4 | nt | -2 | 8 | 3 | i | 13 | 14 | -17
O=C1CC(N2CCN(Cc3ccc4c(c3)OCO4)CC2)C(=O)N1CCc1ccccc1 (centres undefined) | 14 | 6 | 4 | -7 | i | -6 | -9 | -2
COc1ccc(C2C(C(=O)Nc3cccc(OC)c3)c3ccccc3C(=O)N2C)cc1 (centres undefined) | -6 | -7 | -1 | -4 | nt | -4 | -1 | -1
COc1ccc(-c2nn(CCC(=O)O)cc2/C=C2\SC(N)=NC2=O)cc1 | 5 | 5 | -1 | 7 | i | 11 | -13 | -12
O=C(Nc1ccc(C(=O)O)cc1)/C(=C\C=C\c1ccccc1)NC(=O)c1ccc(Br)cc1 | -4 | -1 | -2 | -1 | i | 6 | -2 | -11
O=C(O)/C(=C\c1cccs1)c1ccccc1 | 10 | 5 | 0 | 0 | i | 5 | -7 | nt
Cc1c(C=C(C#N)c2ccc([N+](=O)[O-])cc2)c(=O)n(-c2ccccc2)n1C | 35 | nt | 4 | -2 | nt | nt | nt | -18
Cc1ccc(C(=O)Nc2ccc(NC(=O)c3ccco3)c(C)c2)cc1 | -18 | 12 | 1 | 1 | i | 6 | 10 | -17
CS(=O)(=O)N1CCC(C(=O)NNC(=O)Nc2ccc(F)c(Cl)c2)CC1 | -21 | -3 | 0 | 0 | i | -4 | -1 | -3
O=C(CCC1CCCC1)Nc1ccon1 | -27 | 6 | -1 | 1 | i | -6 | -14 | -5
O=C(CCc1ccccc1)NN1C(=O)C2C3C=CC(C3)C2C1=O (centres undefined) | -5 | 0 | -3 | 2 | i | -1 | 3 | nt
COC(=O)C1=C(C)N(Cc2ccco2)C(=O)/C1=C\c1ccc([N+](=O)[O-])cc1 | ? | 4 | 2 | 8 | i | -6 | -6 | 16
CCCCN(C)C(=O)c1nc2ccccn2c1CNCCCn1nnc2ccccc21 | -12 | 6 | -4 | 1 | i | 34 | -8 | -43
CCN(C(=O)C(C)N1C(=O)/C(=C/c2cccs2)SC1=S)C1CCS(=O)(=O)C1 (centres undefined) | -1 | 12 | -1 | -3 | i | -11 | 6 | -7
NCCCC[C@H]1CNC(=O)C(=O)N1CCc1cc(C(F)(F)F)cc(C(F)(F)F)c1 | 2 | -12 | 1 | 3 | i | -5 | 2 | -24
O=C(c1ccccc1)N1CCOC(O)(c2ccccc2)C1c1ccccc1 (centres undefined) | 11 | nt | -2 | 4 | nt | nt | nt | -14
CCc1noc(C)c1C(=O)N(CCOC)c1c(N)n(CC(C)C)c(=O)[nH]c1=O | 1 | 16 | -6 | 3 | i | -2 | -6 | -2
CCOC(=O)C1=NN(c2ccccc2)C2C(=O)N(c3ccccc3OC)C(=O)C12 (centres undefined) | -1 | -19 | 0 | 10 | i | -7 | 7 | -3
CC(=O)NCCCCCCNC(C)=O | 5 | -4&1 | 5 | 4 | i | -1&-1 | -13 | -18
COC(=O)c1cccc(-n2nnnc2SCC(=O)Nc2cc(C)on2)c1 | nt | -16 | 6 | 2 | i | -4 | -5 | -1
N#CCCN(C(=O)CSc1nc2ccccc2c(=O)[nH]1)c1ccc(F)cc1 | 81* | nt | -3 | -1 | nt | nt | -10 | -9
CC(=O)c1cccc(NC(=O)CN2C(=O)NC(C)(c3ccc4c(c3)OCCCO4)C2=O)c1 (centres undefined) | -1 | nt | -3 | -5 | nt | nt | 13 | -5
CC1(C)CC(=O)C(Sc2nnc(-c3ccc(NS(C)(=O)=O)cc3)n2Cc2ccco2)C(=O)C1 | nt | 1 | -5 | 3 | nt | -9 | -10 | -34
CCOC(=O)C1=C(N)n2c(s/c(=C/c3ccco3)c2=O)=C(C(=O)OC)C1c1ccco1 (centres undefined) | -74 | 81* | 2 | -3 | i | 83* | -2 | -16
CNC(=O)NC(=O)C(c1ccccc1)N(C)CC1COc2ccccc2O1 (centres undefined) | 3 | 6 | 2 | 2 | i | 3 | -2 | -8
CC(=Nc1ccc(C)cc1)c1sc2ccccc2c1O | -398 | 30 | -265 | -5 | i | 29 | 29 | nt
COc1ccc(C2=Nn3c(nnc3-c3ccccc3Cl)SC2)cc1OCC1CC1 | -22 | nt | 1 | -17 | nt | nt | nt | -21
Cc1cc(NC(=O)CN2CCC(C)CC2)no1 | -10 | 10 | 2 | 2 | i | 10 | -8 | nt
Cc1cc(C)nc(NC(=NCc2ccc3c(c2)OCO3)NC(=O)Nc2ccccc2)n1 | -49 | -17 | -3 | -4 | i | -5 | -1 | -14
Cc1ccc(N(CC(=O)NC2CCCCC2)C(=O)c2ccc(C)s2)cc1 | 11 | 7 | -7 | 0 | i | 12 | -6 | -5
Cc1cc(C)c(OCC(=O)OCC(=O)NCC2CCCCC2)c(C)c1 | 1 | nt | 3 | 3 | i | nt | -5 | -5
Oc1ccc(Nc2ccnc3cc(Cl)ccc23)cc1 | 25 | -2 | -10 | -15 | i | 2 | 15 | -6
COc1ccc(/C=N/NC(=O)c2ccc3c(c2)OCO3)cc1 | -5 | -15 | 2 | -1 | i | 4 | -2 | -4
CN(C)/C=C/C(=O)c1ccc([N+](=O)[O-])c(CS(=O)(=O)c2ccccc2)c1 | 23 | 7 | 4 | 6 | i | 0 | -10 | -1
O=C(CSc1ccccc1)N1CCN(S(=O)(=O)c2ccccc2)CC1 | nt | 0 | -3 | 0 | i | 0 | 3 | -15
COc1cccc(OC)c1C(=O)N1CC(C)OC(C)C1 (centres undefined) | -54 | -2 | 3 | 6 | i | -10 | 1 | -1
O=C1/C(=C/c2ccccc2)Nc2ccccc21 | 18 | 3 | -13 | 5 | i | 3 | -5 | -16
COc1ccc(N=C2NC(=O)/C(=C/C=C/c3ccccc3)S2)cc1 | 11 | -2 | 0 | -3 | i | -1 | 5 | -14
O=C(Cc1ccccc1)NCCS(=O)(=O)N1CCN(c2cccc(Cl)c2)CC1 | 6 | nt | 2 | 0 | i | nt | 2 | -11
CCCCN(C(=O)c1ccc(N2CCCC2=O)cc1)c1c(N)n(CCCC)c(=O)[nH]c1=O | -4 | nt | -2 | 1 | i | nt | -8 | nt
COc1cccc2c1OC1(C)CC2NC(=O)N1c1cccc(C(=O)N2CCN(c3ccccn3)CC2)c1 (centres undefined) | nt | -6 | 0 | 5 | i | 3 | -4 | 0
Cc1ccccc1C(=O)NNC(=O)c1ccc(Br)cc1 | -6 | 0 | nt | nt | i | 0 | nt | -15
O=C1c2cccnc2Oc2ccc(Cl)cc2N1Cc1ccc(F)cc1 | 34 | -7 | -1 | 1 | i | -5 | -4 | -29
O=S1(=O)C=CC(N2CCOCC2)C1 (centres undefined) | nt | -4 | -4 | 1 | i | -16 | 7 | -16
CN(C)S(=O)(=O)c1ccc(C(=O)NCCSc2ccc(Br)cc2)cc1 | 4 | -3 | -1 | -5 | i | 2 | 20 | 0
Cc1cc(C)c(C(=O)/C=C/c2ccc(C(C)C)cc2)c(=O)[nH]1 | nt | 1 | -10 | -20 | i | 9 | 84* | -9
Cc1nc2ccc(S(=O)(=O)N(C)CC(=O)NC(C)c3ccccc3)cc2s1 (centres undefined) | 15 | nt | -6 | 2 | i | nt | 10 | -17
CC(=O)Nc1ccc2nc(-c3cccn3C)[nH]c2c1 | -18 | 5 | 3 | 5 | i | 0 | -10 | -8
CCCOc1ccc2oc(=O)c3c(c2c1)CCCN3C(=O)CN1CCN(c2ncccn2)CC1 | nt | -7 | 2 | -3 | i | -8 | -5 | 84
CCOC(=O)C1=C(C)NC(=O)NC1c1ccccc1OCc1c(F)cccc1Cl (centres undefined) | -108 | -15 | 2 | -6 | i | -5 | 7 | -10
COc1ccc(CNC(=O)c2onc(C)c2Cl)cc1 | -4 | -5 | 3 | 6 | i | 6 | -7 | 0
Cc1ccc(SCc2nc(-c3cccnc3)no2)cc1 | nt | -14 | -4 | -2 | i | -6 | -1 | -37
Cc1ccc(-c2onc3ccc(Br)cc23)cc1 | -8 | 15 | -8 | -7 | i | 18 | 6 | -13
Cc1ccc(C(=O)COC(=O)c2ccc3c(c2)C(=O)N(c2cccc4ncccc24)C3=O)cc1 | 6 | -6 | -4 | -3 | i | 12 | 9 | nt
CC(=O)c1ccc2c3c(cccc13)C(=O)N(CCc1ccccc1)C2=O | -19 | 34 | -27 | -4 | i | 62 | 25 | -18 | eIF4H inh retest=2;PABP polyA inh retest=4

Retrieved by structure from above, two records:
SMILES | Env fusion inh | PABP polyA inh | MT1-MMP act inh | MT1-MMP act inh RFP | Rce1 inhib | eIF4H inh | CSC inhib | Yeast UUG start | others
O=C1/C(=C/c2ccccc2)Nc2ccccc21 | 18 | 3 | -13 | 5 | i | 3 | -5 | -16
Cc1cc(C)c(C(=O)/C=C/c2ccc(C(C)C)cc2)c(=O)[nH]1 | nt | 1 | -10 | -20 | i | 9 | 84* | -9

Structural class: those above containing a Cl atom (8)
SMILES | Env fusion inh | PABP polyA inh | MT1-MMP act inh | MT1-MMP act inh RFP | Rce1 inhib | eIF4H inh | CSC inhib | Yeast UUG start | others
CSc1ccc(/C=N/N2CCN(Cc3ccccc3Cl)CC2)cc1 | 17 | 3 | 3 | -1 | i | 1 | 11 | nt
CS(=O)(=O)N1CCC(C(=O)NNC(=O)Nc2ccc(F)c(Cl)c2)CC1 | -21 | -3 | 0 | 0 | i | -4 | -1 | -3
COc1ccc(C2=Nn3c(nnc3-c3ccccc3Cl)SC2)cc1OCC1CC1 | -22 | nt | 1 | -17 | nt | nt | nt | -21
Oc1ccc(Nc2ccnc3cc(Cl)ccc23)cc1 | 25 | -2 | -10 | -15 | i | 2 | 15 | -6
O=C(Cc1ccccc1)NCCS(=O)(=O)N1CCN(c2cccc(Cl)c2)CC1 | 6 | nt | 2 | 0 | i | nt | 2 | -11
O=C1c2cccnc2Oc2ccc(Cl)cc2N1Cc1ccc(F)cc1 | 34 | -7 | -1 | 1 | i | -5 | -4 | -29
CCOC(=O)C1=C(C)NC(=O)NC1c1ccccc1OCc1c(F)cccc1Cl (centres undefined) | -108 | -15 | 2 | -6 | i | -5 | 7 | -10
COc1ccc(CNC(=O)c2onc(C)c2Cl)cc1 | -4 | -5 | 3 | 6 | i | 6 | -7 | 0

Screens from PubChem BioAssay.
